From PubChem BioAssay
Mtb H37Rv: Mycobacterium tuberculosis H37Rv growth inhibition, putative kinase inhibitor library, confirmatory dose response (AID 2842) | M. tuberculosis H37Rv growth inhibition; higher % means a stronger effect; some inactives read as strong as hits | inhibition, % at 10 µg/mL, or IC90 in µg/mL where a hit was titrated | actives 5.2% (n = 24,000);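 active means confirmed in a dose series; inconclusive means mostly over 85% at the one dose but not retested; inactive means below 85% or not confirmed; about a fifth of its hits are not listed in these tables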;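 further: bacteria incubated one week before Alamar blue readout; 0% = bacteria only wells and 100% = bacteria with high antibiotic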
The depositor's hits bear a star; ? = inconclusive.

smiles	Mtb H37Rv
COc1ccc2oc(=O)c(-c3nnc(Nc4cccc(C(F)(F)F)c4)s3)cc2c1	-0.1%
Nc1nc(SCc2cccnc2)[nH]c(=O)c1NC(=O)c1ccc(F)cc1	0.8%
COc1cc(/C=C/C(=O)C2=C(O)c3ccccc3C2=O)ccc1O	?
Cc1ccc(Nc2nc(Nc3cccc(F)c3)nc3nccnc23)cc1Cl	4.6%
Cc1ccc(C(=O)Nc2nnc(-c3ccc(C)cc3C)o2)c(C)c1	3.99µg/mL*
Clc1ccc(-n2ncc3c(NCC4CCCO4)ncnc32)cc1Cl (stereo not given)	5.5%
O=C(NCCc1c[nH]c2ccccc12)c1cnc2n(c1=O)CCS2	7.6%
CCS(=O)(=O)c1cccc(C(=O)Nc2sc(C)c(C)c2-c2nc3ccccc3s2)c1	-18.1%
Cn1c(COc2ccc3c(c2)OCO3)nnc1SCCC(=O)O	-14.9%
COC(=O)Cn1cnc2c(nnn2Cc2ccccc2F)c1=O	-5.5%
CCn1c(SCc2ccccc2Cl)nc2c1c(=O)[nH]c(=O)n2C	77.0%
O=C(Nc1nnc(SCc2ccccc2)s1)c1ccc([N+](=O)[O-])cc1	4.2%
COC(=O)C(C)Sc1ccc2nnc(-c3cccc(F)c3)n2n1 (stereo not given)	-15.0%
CCCC(=O)NCCc1cc2c(C)ccc(C)c2[nH]c1=O	4.9%
COc1cccc(C(=O)Nc2nnc(-c3ccc(Cl)cc3Cl)s2)c1	-4.4%
CSc1nc2ccc3nc(NC(=O)c4cccc(F)c4)sc3c2s1	-5.5%
CCN(C1CCS(=O)(=O)C1)S(=O)(=O)c1ccc(Cl)cc1 (stereo not given)	-4.4%
CC(=O)C(C)n1c(=O)c2c(nc3n(-c4cc(C)ccc4C)c(C)c(C)n23)n(C)c1=O (stereo not given)	8.3%
COc1ccc2cc(CCNC(=O)CCCc3ccccc3)c(=O)[nH]c2c1	-1.9%
O=C1c2ccccc2C(=O)N1CCn1c(=O)oc2ccccc21	-15.2%
O=C(Nc1nnc(-c2ccccc2)o1)C1CCN(S(=O)(=O)c2ccc(Cl)cc2)CC1	74.8%
Nc1nc(SCC(=O)Nc2ccc(Cl)c(Cl)c2)[nH]c(=O)c1NC(=O)c1ccc(F)c(F)c1	-12.8%
O=C(CSc1nnc2[nH]c(=O)ccn12)Nc1ccc([N+](=O)[O-])cc1	-13.1%
Cn1c(=O)c2c(SCC(=O)Nc3cccc(C(F)(F)F)c3)nc(-c3cccs3)nc2n(C)c1=O	11.8%
COc1ccc(-c2nc3cc(C)ccn3c2NC(=O)c2cccc(F)c2)cc1	30.2%
Cc1ccc(C)c(NC(=O)CN2N=NC3C(=O)N(c4ccc(F)c(Cl)c4)C(=O)C32)c1 (stereo not given)	-3.1%
O=C(Nc1nnc(-c2ccc(Cl)cc2)o1)C1CCCCC1	5.6µg/mL*
COc1ccc(-c2nc(C(N)=O)c3[nH]c(=O)n(-c4ccc(C(C)(C)C)cc4)c3n2)cc1	-4.7%
CCS(=O)(=O)c1cccc(C(=O)Nc2nc3ccc(C)cc3s2)c1	-5.8%
CCS(=O)(=O)c1cccc(C(=O)Nc2nc(-c3ccc(F)cc3)cs2)c1	-5.8%
O=C(c1ccco1)N1CCN(S(=O)(=O)c2c[nH]c(=O)[nH]c2=O)CC1	-12.8%
COc1cc(OC)cc(C(=O)Nc2nnc(-c3cc(OC)c(OC)c(OC)c3)o2)c1	72.7%
O=C(CSc1nc2c(oc3ccccc32)c(=O)[nH]1)Nc1ccc(F)cc1	-13.8%
COc1ccc(NC(=O)c2cnc3scc(C)n3c2=O)cc1OC	-7.7%
Cc1cccn2c(=O)c(/C=C(\C#N)C(=O)N3CCOCC3)c(Oc3ccc(Cl)cc3Cl)nc12	4.4%
CCOC(=O)c1nn(-c2ccc(Cl)cc2)c(=O)c2c(NC(=O)CCCCl)scc12	7.9%
COc1ccc(C(=O)Nc2c(N)nc(SCC(=O)Nc3ccc(C)cc3)[nH]c2=O)cc1OC	-9.9%
CCOc1ccccc1-n1c(C)cn2c3c(=O)n(CC(C)=O)c(=O)n(C)c3nc12	11.6%
Cc1ccc(-n2c(SCC(=O)Nc3ccc(F)cc3F)nc3c(c2=O)SCC3)cc1	18.5%
Cc1cc(C)c(NC(=O)CSc2nc3[nH]ncc3c(=O)[nH]2)c(C)c1	-7.7%

Look-ups from the list.
`COc1ccc(C(=O)Nc2c(N)nc(SCC(=O)Nc3ccc(C)cc3)[nH]c2=O)cc1OC` @ Mtb H37Rv = -9.9%
`COc1ccc2cc(CCNC(=O)CCCc3ccccc3)c(=O)[nH]c2c1` @ Mtb H37Rv = -1.9%

Carrying on:
smiles	Mtb H37Rv
Cc1ccc2nc(C)cc(C(=O)O)c2c1	-7.3%
COc1ccc(-c2nnc3ccc(SCC(=O)O)nn23)cc1OC	-6.5%
CCN1CCc2c(sc(NC(=O)c3ccc(C(=O)c4ccccc4)cc3)c2C(N)=O)C1	42.0%
O=C(OCc1ccc2c(c1)OCO2)c1ccc(S(=O)(=O)N2CCOCC2)cc1	-16.2%
COc1ccc(-c2nnc3c4cc5c(cc4n(Cc4cccc(C)c4)cc2-3)OCCO5)cc1	81.0%
COc1ccc(/C(O)=C2/C(=O)C(=O)N(CCCO)C2c2cccc(Cl)c2)cc1F (stereo not given)	17.9%
COc1ccc(N2CC(NC(=O)c3ccc(Br)o3)CC2=O)cc1OC (stereo not given)	-7.1%
O=C1C(=O)N(CC(=O)c2ccccc2C(F)(F)F)c2ccc(Br)cc21	-1.5%
c1ccc(-c2ccc3nnc(SCc4cccnc4)n3n2)nc1	-6.1%
Nc1nc(SCC(=O)Nc2ccc([N+](=O)[O-])cc2)[nH]c(=O)c1NC(=O)c1ccc(F)cc1	-17.7%
Cc1cccc(NC(=O)CSc2nnc(-c3ccncc3)n2N)c1	-3.7%
Cc1nc2sc(C(c3ccc(Cl)c(Cl)c3)N3CCC(C(N)=O)CC3)c(O)n2n1 (stereo not given)	7.9%
CCNC(=O)C(=O)Nc1cc2c3c(c1)CCC(=O)N3CCC2	5.2%
O=c1c2cccc3c2c(nn1Cc1ccccc1)-c1ccccc1-3	5.6%
Cc1ccccc1Cn1cc(S(=O)(=O)c2ccc(F)cc2)c(=O)c2cc(F)ccc21	-0.5%
Cc1ccc2cc(CCNC(=O)CCC3CCCC3)c(=O)[nH]c2c1C	12.7%
Cc1cc(C)cc(-n2nnc3c(=O)n(CC(=O)N4CCc5ccccc54)cnc32)c1	13.7%
Cc1ccccc1NC(=O)c1cc2c(CO)cnc(C)c2oc1=Nc1cccc(Br)c1	-1.1%
COc1cccc(Cn2cc(S(=O)(=O)c3ccc(C)cc3)c(=O)c3cc(F)ccc32)c1	12.8%
O=C(Cn1cc(S(=O)(=O)Cc2ccccc2)c2ccccc21)Nc1ccc2c(c1)OCCO2	-7.5%
Nc1ncnc(NC(c2ccccc2)c2ccccc2)c1[N+](=O)[O-]	14.7%
COC(=O)c1ccc(CSc2nnc(-c3cccnc3)o2)cc1	-23.1%
Cc1cc2cc(CNC(=O)Nc3cccc(Cl)c3)ccc2n1C	9.9%
CCOc1ccc(CC(=O)Nc2ccc(-c3cn4cccnc4n3)cc2)cc1	14.7%
CCOc1ccc(CCNC(=O)CN2c3ccccc3S(=O)(=O)c3ccccc32)cc1OCC	1.2%
O=C(CSc1nc2[nH]ncc2c(=O)n1-c1ccccc1Br)NCc1ccco1	2.3%
O=C1CC(c2nc3ccccc3[nH]2)CN1Cc1ccccc1 (stereo not given)	0.8%
CC(C)C(=O)Nc1c(C(=O)Nc2ccc(F)c(Cl)c2)oc2ccccc12	-4.1%
CC(=O)Nc1ccc2nc(NC(=O)c3cccs3)sc2c1	-6.5%
Cc1nnc(NC(=O)Cc2ccc(F)cc2)s1	-0.8%
O=C(CSc1nc2c(c(=O)n1-c1ccc(Cl)cc1)SCC2)NCC1CCCO1 (stereo not given)	16.7%
N#CCc1ccccc1CC1c2ccccc2Cn2c1nc(=O)c1ccccc12 (stereo not given)	15.2%
O=C(c1ccc(Nc2nc(-c3ccccc3)c3cc(Cl)ccc3n2)cc1)N1CCOCC1	?
Cc1nnc(NC(=O)Cc2cccs2)s1	1.2%
O=C(Nc1nc(-c2cc([N+](=O)[O-])cs2)cs1)c1ccc(S(=O)(=O)N2CCCC2)cc1	1.2%
CCC(C(=O)Nc1c(C(=O)Nc2ccccc2F)oc2ccccc12)c1ccccc1 (stereo not given)	-8.9%
Nc1nc(SCC(=O)NCCc2ccccc2)[nH]c(=O)c1NC(=O)c1ccco1	-20.3%
CC(=O)c1ccc(NC(=O)CSc2ccc3nnc(-c4ccc(C)cc4)n3n2)cc1	0.3%
Cc1ccc2sc(NNC(=O)c3cc4ccccc4oc3=O)nc2c1C	4.21µg/mL*
COc1cc2c(=O)c(S(=O)(=O)c3ccc(F)cc3)cn(Cc3ccccc3)c2cc1OC	-4.7%
COc1ccccc1-n1c(SCC(=O)Nc2ccccc2F)nc2c(c1=O)SCC2	10.9%
Nc1ncnc(SC2=NCCCN2)c1[N+](=O)[O-]	0.4%
Cc1noc(NS(=O)(=O)c2ccc(NC(=O)c3ccco3)cc2)c1C	3.2%
O=C(Nc1ccc(O)c(-c2nc3ccccc3s2)c1)c1ccc(Cc2ccccc2)cc1	5.0%
CC(=O)N1CCc2c(sc(NC(=O)C(C)C)c2C(N)=O)C1	3.4%
Cc1ccc(C(=O)Nc2c(C(=O)Nc3ccc4c(c3)OCO4)oc3ccccc23)cc1	-8.5%
Cc1c(C(=O)Nc2nccs2)nnn1-c1cccc(C(F)(F)F)c1	-18.2%
Cc1ccc(C)c(-c2nnc(NC(=O)c3ccc(S(=O)(=O)N4CCC(C)CC4)cc3)o2)c1	60.2%
Cc1ccc(CN2CCNC(=O)C2CC(=O)O)cc1 (stereo not given)	-9.4%
COc1ccc(NC(=O)CSc2ncnc3ccccc23)cc1OC	-4.0%
COc1cccc(OCC(=O)NC2CC(=O)N(c3ccc(Cl)cc3)C2)c1 (stereo not given)	0.1%
O=C1N/C(=N/N=C/c2ccccc2)SC1Cc1cc(Cl)ccc1Cl (stereo not given)	3.8%
CCN(c1ccccc1)S(=O)(=O)c1ccc(C(=O)Nc2nnc(COC)o2)cc1	39.8%
O=C(Nc1ccc(S(=O)(=O)Nc2nccs2)cc1)c1cc(Cl)cc(Cl)c1	3.9%
Cc1ccc(-c2csc(NC(=O)c3ccc(S(=O)(=O)N4CCCCCC4)cc3)n2)c(C)c1	81.5%
Cc1c(C(=O)Nc2cccc(Cl)c2)sc2nc3n(c(=O)c12)N=C(c1ccc(O)c(O)c1)CS3	20.5%
C=CCn1c(=NC(=O)c2ccc(Br)s2)sc2cc(NC(C)=O)ccc21	7.6%
COc1ccccc1NCCCn1c(C)c(C)n2c3c(=O)[nH]c(=O)n(C)c3nc12	92.2%
CCSc1nnc(NC(=O)CSc2nc(-c3ccc(F)cc3)nc3c2c(=O)n(C)c(=O)n3C)s1	-3.4%
COc1cc(C(=O)Nc2nnc(SCC(=O)Nc3nccs3)s2)cc(OC)c1OC	-23.5%

The closing 6 compounds of the section above lead into the next.
smiles	Mtb H37Rv
Cc1ccc(-c2csc(NC(=O)c3ccc(S(=O)(=O)N4CCCCCC4)cc3)n2)c(C)c1	81.5%
Cc1c(C(=O)Nc2cccc(Cl)c2)sc2nc3n(c(=O)c12)N=C(c1ccc(O)c(O)c1)CS3	20.5%
C=CCn1c(=NC(=O)c2ccc(Br)s2)sc2cc(NC(C)=O)ccc21	7.6%
COc1ccccc1NCCCn1c(C)c(C)n2c3c(=O)[nH]c(=O)n(C)c3nc12	92.2%
CCSc1nnc(NC(=O)CSc2nc(-c3ccc(F)cc3)nc3c2c(=O)n(C)c(=O)n3C)s1	-3.4%
COc1cc(C(=O)Nc2nnc(SCC(=O)Nc3nccs3)s2)cc(OC)c1OC	-23.5%
COc1ccc(Nc2nc(Nc3ccc(F)cc3)c3nccnc3n2)cc1Cl	8.6%
CCOc1cc(C(=O)Oc2cc(C)[nH]c(=O)c2[N+](=O)[O-])cc(OCC)c1OCC	-2.3%
CCOC(=O)c1nn(-c2ccc(C)cc2)c(=O)c2c(NC(=O)c3cccc(F)c3)scc12	9.7%
CC(C)CCNS(=O)(=O)c1cc2c3c(c1)CCN3C(=O)CC2	-5.6%
Cc1ccc2cc(CCNC(=O)c3ccc(F)cc3)c(=O)[nH]c2c1	3.0%
CCN1C(=O)c2cccc3c(S(=O)(=O)NCCCn4ccnc4)ccc1c23	-1.3%
Cc1ccc(S(=O)(=O)N2CCCc3ccc(NC(=O)c4ccc(F)cc4)cc32)cc1	7.8%
COC(=O)CSCC(=O)Nc1nnc(-c2ccccc2OC)s1	-10.6%
COc1ccccc1-n1c(SCC(=O)Nc2ccc(C)cc2)nc2c(c1=O)SCC2	4.3%
O=c1[nH]c(Nc2ccc3c(c2)OCO3)nnc1Cc1ccc(F)cc1	-5.1%
CCN(CC)CCN1C(=O)C(O)=C(C(=O)c2cc3ccccc3o2)C1c1ccccn1 (stereo not given)	-23.7%
O=C1C=C(Nc2ccccc2)C(=O)N1c1ccccc1Cl	-12.5%
Clc1ncnc2c1cnn2-c1ccccc1	3.8%
COc1ccc2c(C)cc(SCC#N)nc2c1	1.7%
Cc1ccc2nc(NC(=O)/C=C/c3ccccc3)sc2c1	8.6%
CCn1c2c(c(=O)[nH]c1=O)C(c1ccc(C)cc1)C1=C(COC1=O)N2 (stereo not given)	-12.5%
CCOCC(=O)Nc1scc2c(C(=O)OCC)nn(-c3ccc(F)cc3)c(=O)c12	1.9%

Shown with each value named: entries from further up
canonical_smiles: CCn1c2c(c(=O)[nH]c1=O)C(c1ccc(C)cc1)C1=C(COC1=O)N2 (stereo not given)
  Mtb H37Rv = -12.5%

canonical_smiles: CCOCC(=O)Nc1scc2c(C(=O)OCC)nn(-c3ccc(F)cc3)c(=O)c12
  Mtb H37Rv = 1.9%

A portion of the library. The share of hits here may be higher or lower than overall.
